# Screens from PubChem.
# VACV mCherry inh: qHTS for Stage-Specific Inhibitors of Vaccinia Orthopoxvirus: mCherry Reporter Primary qHTS | Potency, µM (doses to about 36.5 µM), inactives show top-dose activity change, negative = inhibition, hits mostly inhibitors | Vaccinia virus mCherry reporter infection, fluorescence; about a quarter of the inactives have no number | 0.63% of 310,000 active | AID 720579, 2013; active = well fitted inhibition curve with a large enough effect; inconclusive = small, poorly fitted or top-dose-only effect; inactive = no such curve, though single readings can be large or run the other way; tested in A549 cells; also: nearly all actives have a fitted effect of over 35% in size; inactives centre near -10
# VACV Venus inh: qHTS for Stage-Specific Inhibitors of Vaccinia Orthopoxvirus: Venus Reporter Primary qHTS. 0.46% of 330,000 active. Vaccinia virus Venus reporter expression, fluorescence. Potency, µM (highest dose often 36.5 µM), for the others: at the top dose activity change, negative = inhibition, hits mostly inhibitors; active means well fitted inhibition curve with a large enough effect; inconclusive means small, poorly fitted or top-dose-only effect; inactive means no such curve, though single readings can be large or run the other way; tested in A549 cells; also: nearly all actives have a fitted effect of over 30% in size; inactives centre near -10
# * marks the source's active call; other numbers are inactive results; i = inactive; ? = inconclusive; nt = not tested or not shown; & = joins results of further samples; [ ] = dose if it differs, or a comment. % is scaled to controls: 0 for no effect and ±100 for the full control effect; potency is read from the fitted curve at half-maximal effect.
item	smiles	VACV mCherry inh	VACV Venus inh
1	COc1ccc(OC)c(N2C(N)=C(C#N)C(c3ccc(OC)c(O)c3)C3=C2CC(C)(C)CC3=O)c1 (centres undefined)	-3%	-6%
2	CCOc1ccc(CNS(=O)(=O)c2cc3c(cc2C)NC(=O)CO3)cc1OC	-13%	-1%
3	Cc1cc(C)c(C)c(OCC(=O)N2CCOCC2)c1	nt	-8%
4	CCSc1cc(C2C(C#N)=C(N)Oc3n[nH]c(C)c32)c(C)o1 (centres undefined)	-19%	-15%
5	COc1ccc(-n2nc(N)c(C(N)=O)n2)cc1	-2%	-9%
6	COc1ccccc1NC(=O)OCC#CCOC(=O)Nc1ccccc1OC	-26%	-20%
7	COc1cc(-c2nc3ccccn3c2/N=C/c2cc(OC)c(OC)c(OC)c2)ccc1O	i	-11%
8	COc1ccc(C)cc1NC(=O)CN1CCN(c2ccccc2F)CC1	nt	1%
9	NC(=O)c1c(NC(NC(=O)c2ccco2)C(=O)c2ccc(Cl)cc2)sc2c1CCCC2 (centres undefined)	-24%	-14%
10	CC1(C)CC(=O)N(c2ccc(Cl)c(Cl)c2)C(=O)C1	-16%	-4%
11	CCC1(CC)N([O-])C(C)=C(c2ccccc2)[N+]1=O	nt	-5%
12	COc1ccccc1N1CCN(C(=O)C2CCN(C(=O)c3ccccc3Cl)CC2)CC1	i	-15%
13	Cn1ccnc1SCC(=O)c1ccc(Cl)cc1	-6%	-10%
14	CC(=O)N1C(c2ccccc2O)C[C@]2(C)CC(=O)NC12 (some centres undefined)	0%	0%
15	Cc1nc2c(C)cccn2c1/C(O)=C1\C(=O)C(=O)N(CCN(C)C)C1c1ccco1 (centres undefined)	-7%	15%

# In a second layout: 4 of the compounds above.
11	CCC1(CC)N([O-])C(C)=C(c2ccccc2)[N+]1=O
12	COc1ccccc1N1CCN(C(=O)C2CCN(C(=O)c3ccccc3Cl)CC2)CC1
13	Cn1ccnc1SCC(=O)c1ccc(Cl)cc1
14	CC(=O)N1C(c2ccccc2O)C[C@]2(C)CC(=O)NC12 (some centres undefined)

assay / compound,11,12,13,14
VACV mCherry inh,nt,i,-6%,0%
VACV Venus inh,-5%,-15%,-10%,0%

# The results go on.
item	smiles	VACV mCherry inh	VACV Venus inh
16	COc1ccc(CNn2c(C)nc3ccccc3c2=O)cc1	?	-18%
17	CSc1ccccc1OCc1cc(C(=O)N(Cc2nccn2C)C(C)C)no1	i	-16%
18	CC(C)c1ccc(N(C(=O)c2csnn2)C(C(=O)NC2CCCC2)c2ccncc2)cc1 (centres undefined)	-8%	-4%
19	O=C(O)C1C2CCC(C2)C1C(=O)NCCc1ccc(F)cc1 (centres undefined)	-19%	-7%
20	COC(=O)/C(=C/c1ccc2c(c1)c1ccccc1n2C)NC(=O)c1ccccc1	-18%	-12%
21	CCOC(=O)CCCNC(=O)CCNC(=O)c1ccc(OC(C)C)cc1	-14%	1%
22	Cc1cc(C(=O)N2CCCC(N3CCN(c4ccccc4C)CC3)C2)n(C)n1 (centres undefined)	i	-12%
23	CC(=O)NCC(c1cccs1)S(=O)(=O)c1ccc(F)cc1 (centres undefined)	-1%	-6%
24	COc1ccc2cc(CN(Cc3ccco3)Cc3nnnn3C3CCCCC3)c(=O)[nH]c2c1	-2%	-27%
25	COc1ccc(N(C(=O)Cn2nnc(-c3ccc(F)cc3)n2)C(C)C(=O)NC2CCCC2)cc1OC (centres undefined)	-14%	-2%
26	CCCn1nc(C(=O)Nc2ccc(S(=O)(=O)Nc3nccs3)cc2)c2ccccc2c1=O	nt	3%
27	COc1cc(OC)cc(C(=O)Nc2ccc(S(=O)(=O)Nc3ncccn3)cc2)c1	-9%	-17%&-5%
28	O=C1NC(=O)C(c2ccccc2)(c2ccccc2)N1S(=O)(=O)c1ccccc1	i	-18%
29	CCOC(=O)CN1C(=O)CN(c2ccc(C)cc2)C1=O	i	-16%
30	CCOC(=O)c1[nH]c2ccccc2c1NC(=O)NC(C)C	-6%	-10%
31	O=C(CSc1nc2[nH]ncc2c(=O)[nH]1)c1ccccc1	i	-12%
32	CCOc1ccccc1NC(=O)CN1C(=O)COc2ccc(S(=O)(=O)N3CCCCCC3)cc21	-9%	-5%
33	CCOC(=O)C1CCN(S(=O)(=O)c2ccc(CC)cc2)CC1	-13%	3%
34	O=S(=O)(c1ccc(Cl)cc1)N1c2ccccc2Oc2nc3ccccc3nc21	-1%	-12%
35	CC(C)(C)N(Cc1ccccc1)C(=O)c1cccs1	-13%	-9%
36	Cc1ccc(NC(=O)c2cccc(S(=O)(=O)N3CCN(C)CC3)c2)cc1F	i	-2%
37	CC1(C)Nc2cccc3c(N=Nc4ccc(N=Nc5ccccc5)c5ccccc45)ccc(c23)N1	-12%	-16%
38	COc1cc(OC)c(OC)cc1/C=N/n1c(C)nnc1C	-13%[1.46 µM]	0%
39	O=C(NCC1CCCO1)c1cnn2c(C(F)F)cc(C3CC3)nc12 (centres undefined)	-13%	-16%
40	CCOc1cc2[nH]c(=O)n(CCCCC(=O)NC3CCCCCC3)c(=O)c2cc1OCC	-8%	-2%
41	O=P(O)(O)Cc1ccccc1OP(=O)(c1ccccc1)c1ccccc1	-11%	-17%
42	CC1CCCCN1C(=O)c1cnn2c1NC(=C1CC1)C=C2C(F)F (centres undefined)	i	-11%
43	O=C(CCC(=O)NNC(=S)Nc1ccccc1)NCc1ccccc1	?	-18%
44	c1cc2c(cc1-c1[nH]ncc1CN1CC3C[C@@H]4CC1C[C@H](C3)C4)OCO2	-27%	-8%
45	CNc1cncc(-c2ccoc2)n1	i	-9%
46	CO[C@H]1[C@H](NC(=O)c2ccco2)c2ccccc2C12CCN(Cc1cnn(-c3ccccc3)c1)CC2	-24%	-17%
47	Cc1ccccc1NC(=O)NC1(C(=O)N2CCC(C(N)=O)CC2)CCCCC1	-19%	-4%
48	COc1cc2c(cc1O)CCN(C(=O)CSc1nncn1C)[C@@H]2C	-11%	-9%
49	COc1ccc(Oc2cc(C)nc(Cl)n2)nn1	i	-13%
50	CCc1ccc(NS(=O)(=O)c2ccc3[nH]cc(C(=O)NCCc4ccccc4)c(=O)c3c2)cc1	-9%	-13%
51	O=C(Nc1cccc(F)c1)N1CCN(C/C=C/c2ccccc2)CC1	-13%	-21%
52	O=C(N[C@@H](Cc1ccccc1)C(=O)OCc1ccccc1)c1nc[nH]c1C(=O)N[C@@H](Cc1ccccc1)C(=O)OCc1ccccc1	-21%	-16%
53	O=c1c2ccccc2sn1-c1cccc(Cl)c1	-9%	-27%
54	COc1cc(CNC(=O)c2cc3n(n2)CCCN(Cc2ccc(C)cc2)C3=O)cc(OC)c1OC	-5%	-8%
55	COc1ccc(OCCn2c(N)nc3ccccc32)cc1	-11%	-13%
56	CCN(C(=O)CSc1nc(-c2ccccc2)no1)c1ccccc1	-21%	-3%
57	COc1ccc(C(NC(=O)CNC(C)=O)C(=O)Nc2ccc3c(c2)OCCO3)cc1 (centres undefined)	nt	-10%
58	CCCCNC(=O)c1c(O)c2cccc3c2n(c1=O)CCC3	nt	-2%
59	Cc1c(CC(=O)O)c(=O)oc2c(C)c(OCc3ccc(F)cc3Cl)ccc12	-9%	-7%
60	CCCC(=O)Nc1cccc(NC(=O)CN2CCN(c3ccccc3OC)CC2)c1	i	-1%
61	O=C(CSc1nc2ccccc2s1)Nc1ccc(C(=O)O)cc1	i	0%
62	CCn1cc2nc(SCC(=O)Nc3cc(OC)ccc3OC)n(Cc3ccc(Cl)cc3)c(=O)c2n1	-14%	-12%
63	NC(=O)c1ccc(C(F)(F)F)n(Cc2ccc(F)c(F)c2)c1=O	-10%	-8%
64	CC(=O)c1cccc(NC(=O)C(C)n2c(=O)cc(-c3ccccc3)c3c(C)nn(C)c32)c1 (centres undefined)	-6%	-10%
65	O=C(O)COn1c(-c2ccccc2)nc2ccc(Cl)cc21	i	-7%
66	Cc1ccc(NS(=O)(=O)c2c(C(=O)N3CCCCCC3)c(C)n(C)c2C)c(C)c1	-16%	-4%
67	CN(C)c1ccc(C(=O)Nc2cc(C(F)(F)F)ccc2-n2cncn2)cc1	-6%	1%
68	O=[N+]([O-])c1cccc(-c2nc3ccccc3s/c2=N/O)c1	?	-12%
69	CC(=O)Nc1ccc(C(=O)OCC(=O)NC2CCCCCCC2)cc1	-14%	-10%
70	Cc1cccc(NC(=S)N2CCCCC2c2cccnc2)c1C (centres undefined)	i	-2%
71	O=C(Cn1cnc2c(nnn2-c2ccc(F)cc2)c1=O)N1CCCc2ccccc21	i	-14%
72	COc1cccc(C(C(=O)NCC2CCCO2)N(CC2CCCO2)C(=O)CN2C(=O)c3ccccc3S2(=O)=O)c1 (centres undefined)	-18%	-3%
73	COCCn1c(C)cc(/C=C2/NC(=O)N(c3cccc(Cl)c3)C2=O)c1C	?	?
74	Brc1ccccc1OCCOc1cccc2cccnc12	-2%	-16%
75	CC(=O)[C@H]1CCC2C3CC[C@H]4C[C@@H](O)CC[C@]4(C)C3CC[C@@]21C (some centres undefined)	i	-10%

# (list continues)
item	smiles	VACV mCherry inh	VACV Venus inh
76	O=C1CN(C(=O)COc2ccc(Cl)cc2)C(c2ccc(F)cc2)c2cc(Br)ccc2N1 (centres undefined)	?	?
77	CCC(CO)NC1=CC(=O)CCC1 (centres undefined)	i	-19%
78	Cc1ccc2nc(SCC(=O)c3c(C)[nH]c4ccccc34)[nH]c2c1	-4%	-26%
79	Cc1nc2ccccc2c(C)c1C(=O)c1ccccc1	-6%	-6%
80	Cc1ccc(NC(=O)COC(=O)C2CC3C=CC2C3)cc1S(=O)(=O)N1CCCCC1 (centres undefined)	-23%	-15%
81	Cc1nnc(SCc2cc(=O)n3cccc(C)c3n2)s1	-5%	-4%
82	COc1cccc(C(C(=O)NCC2CCCO2)N(C(=O)Cn2nnc3ccccc32)c2ccccc2C(C)=O)c1OC (centres undefined)	-19%	1%
83	C=C(c1ccccc1Cl)[n+]1ccccc1	-26%	?
84	COc1cc(C23CCCN(CCC(C(C)(C)C)C2)C32OCCO2)cc(OC)c1OC (centres undefined)	-4%	-8%
85	CC(=O)Nc1ccc(OCC(O)CN2CCN(c3ccc(C)c(Cl)c3)CC2)cc1 (centres undefined)	i	-14%
86	Cc1cc2cc(CN(CCN3CCOCC3)C(=O)Nc3ccccc3F)c(=O)[nH]c2cc1C	nt	-11%
87	CC(=O)CC(=O)NC1CCc2ccccc21 (centres undefined)	i	-11%
88	CCOC(=O)Nc1ccc2c(c1)N(C(=O)CN(C)C)c1ccccc1S2	?	-8%
89	CN(C)S(=O)(=O)c1cccc(NC(=O)c2sccc2-c2ccccc2)c1	i	-8%
90	CC1=Nc2cc(C(=O)NC3CCC(C)CC3)ccc2Sc2c(C)ccc(C)c21 (centres undefined)	?	-28%
91	CCN(CC)C(=S)SCC(=O)c1ccc(Br)cc1	i	-4%
92	CCC(=O)Nc1ccc(C(=O)NNC(=O)C2CCCCC2)cc1	-15%	-5%
93	O=c1oc(CCCO)cc2ccc(/C=C/c3cccc([N+](=O)[O-])c3)cc12	i	-13%
94	C[C@H]1CN([C@@H](C)CO)C(=O)CCCn2cc(nn2)CO[C@@H]1CN(C)S(=O)(=O)c1cccc(F)c1	-14%	-4%
95	O=C(NC(=S)NC1CCCCCCCCCCC1)c1cccnc1	nt	?
96	Cc1nnc2n1-c1ccc(Br)cc1C(c1ccccc1Cl)=NC2	-8%	-16%
97	Cc1oc2ccc(O)c(CN3CCOCC3)c2c1C(=O)Nc1cccc(C(F)(F)F)c1	-13%	-7%
98	O=C(Cn1cc(SCc2ccc(Cl)cc2)c2ccccc21)N1CCCC1	-11%	-18%
99	Cc1ccc(NC(=O)Cn2c(=O)n(CCCCC(=O)NCc3ccccc3Cl)c(=O)c3ccccc32)cc1	-19%	-9%
100	COc1ccc(C2=C(C)C(N3CCC(C(=O)NCc4ccc(C)o4)CC3)=NS2(=O)=O)cc1	-8%	-11%
101	CC1CCCCC1NC(=O)c1ccc(NC2=NC3CS(=O)(=O)CC3S2)cc1 (centres undefined)	7%[7.34 µM]	20%[7.34 µM]
102	COc1ccc([C@H]2CC(=O)C=C(c3cccc(Cl)c3)C2)cc1OC	-23%	?
103	CCOC(=O)N1CCC(NC(=O)c2cc(C(=O)NCc3cccc(Cl)c3)ccc2CO)CC1	-11%	?
104	COC(=O)[C@H](CCSC)NC(=O)Cn1cnc2c(OCc3ccccc3)ncnc21	-12%	-3%
105	Cc1nc2ccc(-c3nc4cc(N)ccc4o3)cc2[nH]1	i	-13%
106	Cc1cc(/C=N/NC(=O)C(O)(c2ccccc2)c2ccccc2)c(C)n1-c1ccc(C(=O)O)cc1	i	-4%
107	COC(=O)C1=C(C(=O)OC)[C@@H]2N(C)c3ccccc3[C@@]23C[C@@H](C(=O)OC)N(C(C)=O)C3=N1	-12%	-5%
108	CCn1c(SCC(=O)Nc2cc(C)on2)nc2c1c(=O)n(C)c(=O)n2C	-13%	-6%
109	COc1ccc(NC(=O)c2ccc(N3CCOCC3)nc2)cc1	-15%	-9%
110	CCCc1nnc(NC(=O)CCC(=O)NC2CCCCCC2)s1	-10%	4%
111	CC(C)(C)NC(=O)C1CCN(C(=O)c2ccc(Br)cc2)CC1	-8%	-5%
112	O=C(NCc1ccc2c(c1)OCO2)c1cc(-c2ccccc2)on1	-10%	-18%
113	CCCC(C)C(=O)Nc1ccc(S(=O)(=O)Nc2nccc(C)n2)cc1 (centres undefined)	i	0%
114	COc1ccc([N+](=O)[O-])cc1NCc1ccccc1	?	-19%

# No enrichment for hits. Share with any hit: about 0.82%.
